Sfp PPTase inh – Sfp phosphopantetheinyl transferase inhibition; 310,000 tested, 3.5% active; Q9F4F7; Biochemical Sfp PPTase activity, qHTS; Potency, µM, inactives show max response, negative = inhibition, actives largely listed as inhibitors; active means well fitted inhibition curve with a large enough effect; inconclusive means small, poorly fitted or top-dose-only effect, or another doubt; inactive means no such curve, though single readings can be large or run the other way;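 further: the enzyme is Sfp with the accession as filed and its product quenches rhodamine fluorescence; potency means the concentration at half of the fitted maximal effect; 0% = enzyme reaction without inhibitor and -100% = no enzyme wells; top concentration of the series not given in the record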
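After 15 min at room temperature with compound, 15 nM Sfp received 5 uM rhodamine-CoA plus 12.5 uM BHQ-2-ybbR (50 mM Hepes pH 7.6, 10 mM MgCl2). Rate came from the fluorescence difference over 30 min, ex 525/em 598 nm.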
gsp antagonist – antagonists of gsp mutant (McCune-Albright syndrome). gsp-mutant cells, cAMP HTRF, 30 min; control for the full effect not named in the record. Potency, µM (series often up to 76.9 µM), without a hit: at the highest dose activity change, negative = inhibition, most hits filed as inhibitors. 340,000 tested, 0.4% active. AID 624288; active = falling curve of any shape with a large fitted effect; inconclusive = falling curve, mostly with a smaller effect; inactive = flat or rising curve; cell line not stated here;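 further: intracellular cAMP measured with PDE inhibitor Ro 20-1724 present during compound exposure; potency means the concentration at half of the fitted maximal effect; on the % scale 0 is the no-effect control and ±100 the full control effect; nearly all actives have a fitted effect of over 65% in size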
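Measurement of cellular cAMP by homogeneous time-resolved fluorescence following a 30 min compound exposure at 37C. The PDE inhibitor […] was present throughout; the assay buffer was DPBS with 0.05% BSA and 0.005% Tween 20.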
ClpP mod – qHTS Assay for Activators of ClpP. ATP-dependent Clp protease proteolytic subunit (Bacillus subtilis (strain 168)), P80244. purified B. subtilis ClpP, FRET peptide cleavage, 20 min. Potency, µM (titrated, usually from 57.5 µM), for inactives: at the highest dose activity change, negative = active. 340,000 tested, 1.9% active; active = well fitted falling curve with a large enough effect; inconclusive = small, poorly fitted or top-dose-only effect; inactive = no such curve, though single readings can be large or run the other way; further: potency means the concentration at half of the fitted maximal effect; the source files actives as falling curves though it sought activators and does not explain the sign; nearly all actives have a fitted effect of over 65% in size; many hits overshoot -100%
Target sequence (P80244 whole entry, looked up): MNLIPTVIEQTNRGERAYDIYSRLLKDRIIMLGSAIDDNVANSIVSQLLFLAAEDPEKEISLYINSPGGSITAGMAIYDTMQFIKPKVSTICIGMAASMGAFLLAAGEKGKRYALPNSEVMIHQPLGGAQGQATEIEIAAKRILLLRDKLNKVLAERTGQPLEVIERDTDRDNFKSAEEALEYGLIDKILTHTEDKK
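ClpP 10 microg/mL final, pH 8 Tris/KCl buffer with BSA, glycerol, Tween-20; compound pinned in; FRET-FV substrate; RT 20 min; Ex320/Em430; ΔFRET vs ADEP 5.8 microM, DMSO, no enzyme.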
Menin MLL FP FL – displaces fluorescein MLL peptide from human menin; Fluorescence polarization, fluorescein-MLL peptide displacement from menin; FP activity change, % at 61.4 µM; 290,000 tested, under 10 active; AID 1766; inconclusive = falling polarisation curve, or a change in total fluorescence; inactive = total fluorescence flat and polarisation flat or rising; no compound was filed as active; the % refers to the polarisation; negative = inhibition;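 further: % of control where 0% means no effect; inhibitors lower the polarisation; unlabelled MLL peptide was the positive control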
TRPV1 PAM – enhances activation of the human vanilloid receptor TRPV1; TRPV1-expressing cells, Fluo-8 calcium influx, capsaicin EC20 potentiation; host cell line not named in the record; control for the full effect not named in the record; AID 540277; potentiation, % at 8.33 µM; 320,000 tested, 0.02% active; active means potentiation above 80%; inconclusive means 30% to 80%; inactive means below 30%; further: 0% is about no effect
Target sequence (Q8NER1 whole entry, looked up): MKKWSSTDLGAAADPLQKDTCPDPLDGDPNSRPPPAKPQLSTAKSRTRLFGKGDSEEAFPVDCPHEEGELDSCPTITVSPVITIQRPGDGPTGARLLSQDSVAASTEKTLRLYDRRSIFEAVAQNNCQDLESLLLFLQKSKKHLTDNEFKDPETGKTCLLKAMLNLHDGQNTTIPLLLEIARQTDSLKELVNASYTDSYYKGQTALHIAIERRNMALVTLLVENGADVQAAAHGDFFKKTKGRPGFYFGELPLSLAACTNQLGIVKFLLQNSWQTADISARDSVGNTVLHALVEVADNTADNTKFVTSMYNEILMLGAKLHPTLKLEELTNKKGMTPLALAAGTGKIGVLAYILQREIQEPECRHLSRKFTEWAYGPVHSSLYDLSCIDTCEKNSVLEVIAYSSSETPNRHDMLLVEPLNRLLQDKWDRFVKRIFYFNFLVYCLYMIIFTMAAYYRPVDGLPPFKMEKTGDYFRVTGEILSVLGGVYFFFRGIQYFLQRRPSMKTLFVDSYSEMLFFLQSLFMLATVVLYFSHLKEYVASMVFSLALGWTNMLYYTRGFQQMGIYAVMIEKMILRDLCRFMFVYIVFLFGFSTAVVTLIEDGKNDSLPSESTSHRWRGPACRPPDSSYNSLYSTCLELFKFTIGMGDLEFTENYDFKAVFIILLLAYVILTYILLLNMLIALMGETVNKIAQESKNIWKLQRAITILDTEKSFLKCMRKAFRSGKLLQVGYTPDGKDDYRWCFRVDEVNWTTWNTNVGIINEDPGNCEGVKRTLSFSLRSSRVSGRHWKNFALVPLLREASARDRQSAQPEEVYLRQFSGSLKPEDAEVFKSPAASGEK
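Fluo-8 calcium influx in TRPV1-expressing cells, kinetic read (ex 480/em 520 nm). Compound added and read 3 min for agonist activity, followed by capsaicin at EC20 final and 2 min further read for enhancement.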
TRPML1 blocker – inhibitors of human TRPML1 channel. TRPML1-inducible cells, Ca2+ dye fluorescence, FDSS; hits give low values; inhibition of EC80 agonist-evoked calcium signal. AID 624415. activity change, negative = inhibition, % (concentration not given with the values). Q9GZU1. 390,000 tested, 0.02% active; in the data active means activity change below about -50%; inconclusive means about -30% to -50%; inactive means above about -30%;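 further: stimulus is agonist 54-4 at its EC80 concentration; on the % scale 0 is the no-effect control and ±100 the full control effect; compound concentration not given in the record; the text of the record puts the active cut at -80%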
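Calcium fluorescence in TRPML1-DL cells induced overnight with Tet: a 110 s read after compound pin addition, then a 110 s antagonist read after challenge with 54-4 at 4 uM final (EC80).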
gsp agonist – agonists of gsp mutant (McCune-Albright syndrome); gsp mutant cells, cAMP HTRF, 30 min; control for the full effect not named in the record; 340,000 tested, 0.13% active; Potency, µM (highest dose often 76.9 µM), for inactives: top-dose activation (cAMP increase), actives largely listed as activators; active = well fitted activation curve with a large enough effect; inconclusive = small, poorly fitted or top-dose-only effect, or another doubt; inactive = no such curve, though single readings can be large or run the other way; cell line not stated here;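 further: phosphodiesterase inhibitor Ro 20-1724 added with compounds to block cAMP breakdown; potency means the concentration at half of the fitted maximal effect; nearly all actives have a fitted effect of over 60% in size; about a fifth of the inactives were tested at one dose only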
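Cells in DMEM/10% FBS with G418 were pretreated with compounds in DMSO plus […] (300 uM stock) for 30 min at 37C. cAMP was measured by HTRF (cAMP-d2 plus anti-cAMP antibody-K) after 30 min at room temperature.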
An asterisk follows results filed as active; u = inconclusive; x = not tested or not shown; [ ] = remark or other dose.

compound	Sfp PPTase inh	gsp antagonist	ClpP mod	Menin MLL FP FL	TRPV1 PAM	TRPML1 blocker	gsp agonist
CC(C)NC(=O)c1nc2c(nnn2Cc2cccc(Cl)c2)c(=O)[nH]1	0.6%	-8.6%	-3.9%	-8.0	2.8	-9.1	-0.6%
Cc1cccn2c(=O)c3cc(C(=O)NC4CCS(=O)(=O)C4)n(Cc4ccccc4)c3nc12 (stereo not drawn)	7.4%	-2.2%	3.6%	0.0	9.4	6.2	u
CCCOc1cc(C)c(S(=O)(=O)N2CCOCC2)cc1C	-10.4%	x	x	2.8	-4.2	x	x
CCOc1ccc(S(=O)(=O)N2CN3CCN(C3)C2)cc1	5.9%	-9.4%	0.2%	-11.3	-14.3	12.3	0.3%[15.4 µM]
O=C1N=c2ccccc2=C1c1sc(=S)n(CC2CCCO2)c1O (stereo not drawn)	6.2%	-3.6%	0.5%	2.9	4.0	15.4	11.8%
CCN(C(=O)COC(=O)c1c(C)nn(-c2ccccc2)c1C)C1CCS(=O)(=O)C1 (stereo not drawn)	7.7%	1.7%	x	-1.3	0.2	20.4	3.7%
COC(=O)c1ccccc1NC(=O)c1c(Br)cnn1C	15.5%	5.0%	-1.7%	-6.6	0.0	26.4	2.2%
COCCn1c(SCC(=O)NC(C)c2ccccc2)nc2ccccc21 (stereo not drawn)	11.9%	-21.1%	-0.2%	-2.6	-1.7	7.6	-94.8%[inhibitor]
Cn1ccnc1SCC(=O)Nc1ccc(F)c([N+](=O)[O-])c1	18.3%	-3.2%	1.1%	-0.5	5.2	5.9	-25.0%
NS(=O)(=O)c1ccc(Nc2nc(-c3cccnc3)cs2)cc1	11.7%	2.5%	-3.8%	0.1	-5.2	-19.1	-2.4%[15.4 µM]
COc1ccc(CCNC(=O)CCc2cn(C)c3ccccc23)c(OC)c1	10.4%	-5.4%	x	5.7	2.9	-12.2	17.8%
COc1ccc(OCc2cc(C(=O)N3CCC(OC)CC3)no2)c2ccccc12	-11.2%	-11.3%	-9.1%	x	-1.5	1.9	-21.0%
COc1ccc(OC)c(NC(=O)CN2CCN(C(=O)c3ccco3)CC2)c1	u	11.8%	0.5%	3.9	6.1	3.6	-3.1%
COc1ccc(S(=O)(=O)NNC(=O)c2ccc(-n3c(C)ccc3C)cc2)cc1	5.4%	2.4%	x	4.9	0.0	33.5	u
Cc1cc(=O)n2c3ccccc3n(CC(O)CN3CCN(Cc4ccccc4)CC3)c2c1C#N (stereo not drawn)	14.6%	-16.7%	3.6%	2.5	7.2	-4.6	18.6%
Cn1cccc1C(=O)NC(=O)COC(=O)CCNS(=O)(=O)c1cccc(C(F)(F)F)c1	x	-5.5%	-1.7%	x	8.8	-8.2	-43.5%[inhibitor]
CCOc1ccc(/C(O)=C2/C(=O)C(=O)N(CCCn3ccnc3)C2c2cccs2)cc1Cl (stereo not drawn)	13.7%	-3.1%	-0.2%	0.3	18.1	-11.5	20.0%
Cc1ccc(CNS(=O)(=O)c2ccc(C)s2)cc1	3.7%	-10.0%	-0.4%	x	15.1	-1.3	-38.4%[inhibitor]
CCOC(=O)C1CCN(C(=O)CN(c2ccc3c(c2)OCCO3)S(=O)(=O)c2ccccc2)CC1	x	-4.6%	x	x	-9.3	-11.1	-2.3%[15.4 µM]
Clc1ccc(OCCCNCc2ccccc2)c(Br)c1	u	7.2%	-0.1%	1.0	16.2	-2.0	-57.0%[inhibitor]
CCn1c(C)c(C)c2cc(C(=O)N3CCCC3)ccc21	3.5%	-1.1%	-5.2%	x	-19.7	3.3	u
Cc1cc(C)n2nc(CNS(=O)(=O)c3cccc([N+](=O)[O-])c3)nc2n1	9.9%	1.8%	-0.8%	-0.3	3.2	40.5	29.2%
Cc1ccc(NS(=O)(=O)N(C)C)cc1	11.7%	6.2%	-24.8%	-0.4	0.3	-18.2	u
Cn1c(=O)c2c(-c3ccccc3F)c3c(nc2n(C)c1=O)-c1ccccc1C3O (stereo not drawn)	12.8%	-6.8%	-4.5%	0.1	u	-3.0	-74.4%[inhibitor]
O=c1[nH]c2ccccc2nc1-c1ccccc1	14.6%	3.4%	x	2.7	-18.1	-6.7	11.0%
C=CCn1c(SCn2nnc3ccccc3c2=O)nnc1-c1ccc(Cl)cc1	-1.0%	2.9%	-1.2%	2.1	-1.2	-3.1	-24.2%
O=C(N/N=C/c1cccnc1)c1ccc([N+](=O)[O-])cc1Cl	4.3%	9.0%	0.2%	1.5	-19.6	-15.8	-3.2%
COc1ccc(OC)c(NC(=O)c2c(NC(=O)CNCc3ccco3)sc3c2CCC3)c1	4.0%	5.8%	15.8µM*	2.0	7.9	10.7	-7.5%
COC(=O)[C@H](C)N(Cc1ccc(Cl)c(Cl)c1)S(=O)(=O)CCN1CCN(c2ccccc2)CC1	x	-11.3%	1.4%	x	x	-11.1	x
NC(=O)c1ccc(-n2nnnc2SCc2ccccc2)cc1	14.3%	-18.1%	0.8%	-4.1	-16.9	-6.5	u
CCC(C)OC(=O)c1[nH]c2c(c1C)C(=O)CC(c1ccc(N(C)C)cc1)C2 (stereo not drawn)	-5.2%	-13.8%	0.9%	2.0	12.3	29.2	-7.7%
O=C(c1cc2ccccc2o1)N1CCC(N2CCC(C(=O)N3CCCC3)CC2)CC1	16.2%	7.0%	x	9.0	2.9	0.6	-5.8%[15.4 µM]
COC(=O)C1=C(CSc2nncn2C)NC(=O)NC1c1cc(C)ccc1C (stereo not drawn)	-26.8%	10.8%	-3.9%	4.9	6.6	-2.9	-21.3%
COc1cccc(N2CCN(C(=O)c3ccc(N4C(=O)NC5CC4(C)Oc4ccccc45)cc3)CC2)c1 (stereo not drawn)	15.5%	2.5%	1.1%	2.6	5.8	7.6	1.2%[15.4 µM]
Cc1ccc(CNC(=O)CSc2c3c(nc4ccc(Cl)cc24)CCCC3)o1	35.5µM*	-0.7%	5.5%	4.0	-19.5	8.0	u
COc1ccc(-c2cc(C(F)(F)F)c(C#N)c(SCC(=O)Nc3ccc(C)cc3)n2)cc1	-9.4%	15.8%	-9.6%	1.0	u	13.6	21.9%
O=C(CSc1nnnn1-c1ccc(Cl)cc1)Nc1cccnc1Cl	-21.2%	-3.6%	-2.8%	0.6	-11.0	1.9	-10.7%
O=S(=O)(NCCc1cn2ccccc2n1)c1cccs1	12.1%	7.3%	-13.5%	0.6	-1.9	3.3	-8.8%
CN(CC(=O)Nc1ccccc1Cl)C(=O)CN1C(=O)C2CCCCC2C1=O (stereo not drawn)	x	7.2%	-2.6%	x	1.0	-11.0	3.3%
CCc1ccc(CN(C)C(=O)c2cc(S(=O)(=O)N3CCN(CC)CC3)ccc2Cl)cc1	x	-4.7%	x	x	11.1	-6.0	-38.3%[15.4 µM]
Cc1cc2oc(C(=O)N(Cc3ccco3)C3CCS(=O)(=O)C3)cc(=O)c2cc1Cl (stereo not drawn)	-18.6%	-6.9%	-1.9%	1.1	16.1	3.3	3.7%
CC(C)(C)NC(=O)Nc1cccc(Cl)c1Cl	23.3%	10.9%	-6.0%	1.9	-0.6	9.5	u
Brc1ccc(-c2nn[nH]n2)cc1	19.0%	-1.7%	0.5%	-0.3	x	x	2.1%
CCOC(=O)NCc1ccc(S(=O)(=O)Nc2ccccc2C)cc1	14.1%	3.9%	1.2%	1.0	9.4	-9.4	-1.6%
O=C(O)c1cc2c(o1)CCC/C2=N\O	24.1%	1.8%	-2.6%	3.7	3.3	-7.7	20.4%
O=C(Nc1ccc(F)cc1)Nc1nnc(-c2ccco2)s1	4.5%	-1.1%	x	-5.6	1.6	6.4	27.4%
Cc1cccc(NC(=O)CSc2nc(N)c(NC(=O)c3cccs3)c(=O)[nH]2)c1	13.0%	2.6%	-0.7%	0.7	-20.6	-3.0	-2.7%
CC(O)CNc1nc2c(c(=O)n(C)c(=O)n2C)n1C/C=C/c1ccccc1 (stereo not drawn)	-1.1%	8.9%	-1.9%	-3.0	0.9	10.7	-17.8%
CC1CCc2nc(NC(=O)C3COc4ccccc4O3)sc2C1 (stereo not drawn)	-4.4%	-20.3%	0.0%	-1.9	-24.3	-7.1	7.8%
Cc1cc(C(=O)OCC(=O)NC2CCS(=O)(=O)C2)c(C)n1-c1ccccc1 (stereo not drawn)	-6.8%	14.5%	-2.1%	1.9	-3.3	3.7	10.6%
COc1cc(OC)cc(-n2nnnc2SCC(=O)NCc2cccs2)c1	13.8%	-12.0%	x	-1.3	5.6	5.7	10.6%[15.4 µM]
COc1ccc(C(=O)Nc2ccc(SC(F)F)cc2)cc1	7.3%	2.5%	-3.9%	8.6	-3.9	-7.0	16.4%
NS(=O)(=O)c1ccc(NC(=O)/C=C/c2ccccc2[N+](=O)[O-])cc1	7.2%	x	x	4.4	2.9	1.9	6.4%[15.4 µM]
CCN1C(=O)C(CC(=O)NC2CCCCC2)N(CC)C1=O (stereo not drawn)	29.3%	-3.1%	1.4%	1.0	-6.4	13.3	5.9%
COc1cccc(/C=C/C(=O)NCc2cn3cc(Cl)ccc3n2)c1	18.3%	6.0%	-2.0%	1.9	-5.6	-5.7	-7.0%[15.4 µM]
Cc1nn(-c2ccccc2)c2sc(C(=O)N(CC(=O)NC3CCCC3)Cc3ccco3)cc12	u	u	u	4.4	-6.1	53.3	-6.3%
O=c1[nH]c(CN2CCCC2)nc2sc3c(c12)CCC3	-1.2%	x	x	-0.7	5.1	9.7	-3.1%[15.4 µM]
COc1ccc([C@H]2C[C@@H](n3cc(-c4ccc(F)cc4)nn3)[C@H](O)CN2C(=O)c2cccs2)cc1	x	x	1.1%	x	x	38.3	-25.6%
CCOc1ccc(C2CC(=O)NC2=O)cc1 (stereo not drawn)	11.3%	1.1%	-1.4%	1.2	0.8	-5.4	-33.0%
CCOC(=O)NNC(=O)NCCCCCCNC(=O)NNC(=O)OCC	6.5%	14.3%	0.8%	4.9	-1.0	15.2	25.9%
Cc1ccc(S(=O)(=O)NCCC(=O)NNC(=O)COc2ccccc2Cl)cc1C	x	-0.8%	-0.3%	x	-1.9	7.4	-14.5%
